GIRK2 act: activators of human GIRK2 potassium channels; HEK293-GIRK2 thallium flux, Thallos fluorescence; P48051; calls only for hits at 25 µM; actives 0.05% (n = 63,000);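 active = among the strongest 0.2% of first-round signals and kept after retests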;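 also: first round at about 10 µM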
Target sequence (P48051 whole entry, looked up): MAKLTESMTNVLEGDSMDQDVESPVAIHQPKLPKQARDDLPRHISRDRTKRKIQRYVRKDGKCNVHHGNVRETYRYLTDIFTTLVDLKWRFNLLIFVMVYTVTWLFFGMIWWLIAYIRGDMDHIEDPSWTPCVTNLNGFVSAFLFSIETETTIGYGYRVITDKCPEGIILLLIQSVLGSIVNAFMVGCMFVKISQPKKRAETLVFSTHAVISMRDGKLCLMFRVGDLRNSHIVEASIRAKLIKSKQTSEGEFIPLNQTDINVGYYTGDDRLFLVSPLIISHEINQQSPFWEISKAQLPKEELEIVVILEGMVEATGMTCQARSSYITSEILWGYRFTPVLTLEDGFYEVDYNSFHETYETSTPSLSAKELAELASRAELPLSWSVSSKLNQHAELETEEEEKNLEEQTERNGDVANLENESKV
Calls only; i = inactive. Only part of the results is shown; the hit share may differ from the screen's.

SMILES | GIRK2 act
Cc1c2oc3c(C)ccc(C(=O)N[C@@H]4C(=O)N[C@H](C(C)C)C(=O)N5CCC[C@H]5C(=O)N(C)CC(=O)N(C)[C@@H](C(C)C)C(=O)O[C@@H]4C)c3nc-2c(C(=O)N[C@@H]2C(=O)N[C@H](C(C)C)C(=O)N3CCC[C@H]3C(=O)N(C)CC(=O)N(C)[C@@H](C(C)C)C(=O)O[C@@H]2C)c(N)c1=O | i
O=c1c2scc(-c3ccc(Cl)cc3)c2ncn1Cc1ccc(F)cc1 | i
O=C(CCC(=O)N1CCN(Cc2nc3ccccc3[nH]2)CC1)c1ccccc1 | i
O=S(=O)(Nc1nc2ccccc2nc1Nc1ccc2c(c1)OCCO2)c1cccs1 | i
CCOC(=O)c1oc2cc(OC(=O)CCCCl)ccc2c(=O)c1-c1nc2ccccc2s1 | i
COc1cc(N2CCN(C(C)C)CC2)ccc1Nc1nc(Nc2cccc3ncccc23)c2cc[nH]c2n1 | i
O=C(CSc1nnc(N2CCN(C(=O)Cc3ccc(F)cc3)CC2)s1)NCc1ccco1 | i
COc1cc(COc2ccc3c(c2)C(=O)CC3)cc(OC)c1 | i
COc1cc(NC(=O)Cn2c(=O)c(CNc3ccccc3)cc3ccc(C)cc32)cc(OC)c1 | i
O=C(CSc1ncn[nH]1)Nc1ccc2c(c1)OCCO2 | i
COc1ccc(-n2c(C)nc3ccc(NC(=O)c4ccc5ccccc5n4)cc3c2=O)cc1 | i
CC(C)(C)C(=O)NCC#CCOc1ccc2c(c1)OCO2 | i

Rewritten as labelled records: part of the list above
COc1cc(NC(=O)Cn2c(=O)c(CNc3ccccc3)cc3ccc(C)cc32)cc(OC)c1
  GIRK2 act: i
CC(C)(C)C(=O)NCC#CCOc1ccc2c(c1)OCO2
  GIRK2 act: i
O=C(CSc1ncn[nH]1)Nc1ccc2c(c1)OCCO2
  GIRK2 act: i
O=C(CSc1nnc(N2CCN(C(=O)Cc3ccc(F)cc3)CC2)s1)NCc1ccco1
  GIRK2 act: i

New compounds follow
SMILES | GIRK2 act
CCC(C(=O)Nc1cc(OC)cc(OC)c1)n1nc2cc(-c3nc(C)no3)ccn2c1=O (stereo not given) | i
CCSc1ccccc1C(=O)N1CCCC(c2nnc(-c3cccs3)o2)C1 (stereo not given) | i
Cc1ccc(-n2ncc3c(=O)n(Cc4nc(-c5cccc(Br)c5)no4)cnc32)cc1 | i
COc1cc(NC(=O)c2ccc(Br)o2)ncn1 | i
Cc1ccc(NC(=O)CSc2ncccc2-c2nc(-c3cccs3)no2)c(Cl)c1 | i
CCOc1ccc(OCC)c(S(=O)(=O)NCc2sc(C)nc2C)c1 | i
CCOC(=O)C1=C(C)NC(=O)NC1c1ccc(OC)c(Br)c1 (stereo not given) | i
CC(Oc1ccccc1)C(=O)NCc1nn(C2CCCC2)c(=O)c2ccccc12 (stereo not given) | i
Cc1ccc(Cl)cc1NC(=O)CSc1nc2ncccc2c(=O)n1CC1CCCO1 (stereo not given) | i
O=C(CCCSc1ccc(NC(=O)c2ccc(F)cc2)nn1)NCCN1CCOCC1 | i
Cc1ccc(-n2ccnc(SCC(=O)Nc3cc(Cl)ccc3C)c2=O)cc1 | i
Cc1cc(C)cc(N(Cc2cccc(F)c2)S(=O)(=O)c2cccn3c(C)nnc23)c1 | i
COc1cc(C(=O)OCC(=O)c2ccc3ccccc3c2)cc(OC)c1O | i
Cc1ccccc1C(=O)NC1CCN(C(=O)c2cn(-c3ccccc3)nn2)CC1 | i
CCOC(=O)Cn1cnc2c(-c3ccc(OC)cc3)csc2c1=O | i
O=C1CC(C(=O)Nc2ccc(C(F)(F)F)cc2)c2ccccc21 (stereo not given) | i
COc1ccc2c(c1)CCN(C(=O)c1coc(NC(=O)c3cc(C)on3)n1)C2 | i
N#Cc1ccc(NC(=O)CSc2nccn2-c2cccc(C(=O)NCc3cccs3)c2)cc1 | i
COc1ccccc1-c1ccc(N2CCCC(C(=O)Nc3ncccc3C)C2)nn1 (stereo not given) | i
N#C/C(=C\Nc1ccc2c(c1)OCCO2)c1nc2ccccc2s1 | i
Cn1c(NCCCN2CCOCC2)nc2c1c(=O)n(Cc1ccccc1)c(=O)n2C | i
CCOC(=O)c1sc2ccccc2c1S(=O)(=O)NCc1ccc(F)cc1 | i
Cc1c(C(=O)NCC(C)C)c(C)n2cnn(CC(=O)Nc3ccc(Br)cc3)c(=O)c12 | i
O=C(/C=C/c1ccc2c(c1)OCO2)N1CCN(C(=O)C2CC2c2ccc(F)cc2)CC1 (stereo not given) | i
Cc1ccccc1Cn1c(C2CC(=O)N(Cc3ccccc3)C2)nc2ccccc21 (stereo not given) | i
COC(=O)c1ccccc1NC(=O)CSc1ccc2ccccc2n1 | i
CCOC(=O)N1CCN(C(c2ccccc2F)c2sc3nc(C)nn3c2O)CC1 (stereo not given) | i
Cn1cccc1C(CNC(=O)C(=O)NCc1cccs1)N1CCCC1 (stereo not given) | i
O=C(Nc1cccc(Cl)c1)N1CCC(Cn2ccnc2-c2ccccc2)CC1 | i
O=C(NCc1ccco1)c1coc(NC(=O)c2cnccn2)n1 | i
COc1cc(/C=C2\SC(=S)N(c3ccc(Cl)cc3)C2=O)cc(OC)c1OC | i
O=C(Nc1nc(-c2ccc(Cl)cc2)cs1)C1CCCN1S(=O)(=O)c1cccs1 (stereo not given) | i
O=C(Nc1nc2c(F)cc(F)cc2s1)Nc1c(F)cccc1F | i
Cc1ccsc1C(O)CNC(=O)NCc1ccccc1 (stereo not given) | i
Cn1cc(C2=C(c3cn(C)c4c([N+](=O)[O-])cccc34)C(=O)NC2=O)c2ccccc21 | i
COC(=O)c1ccc(S(=O)(=O)NCCc2csc(-n3nc(C)cc3C)n2)cc1 | i
COc1ccc2c(c1)c1nc(SCC(=O)Nc3ccccc3C)n(C)c(=O)c1n2C | i
Cc1ccc(-c2noc(C3CCN(CC(=O)Nc4cccc(Cl)c4C)CC3)n2)cc1 | i
O=C(CSc1nnc2ccccn12)c1ccc(Cl)cc1 | i
CSc1ccccc1NC(=O)c1nnn2cc(C)[nH]c(=O)c12 | i
COc1cccc2cc(C(=O)OCC(=O)c3ccccc3)c(=O)oc12 | i
Cc1ccccc1NC(=O)c1ccc(S(=O)(=O)N2CC(C)CC(C)C2)cc1 (stereo not given) | i
COc1cc(NC(=O)Cn2cncn2)ncn1 | i
Cc1cn2c(CCC(=O)Nc3ccc4sc(C)nc4c3)csc2n1 | i
Cc1ccc(-c2ccc(N3CCN(S(=O)(=O)c4ccc(Cl)cc4)CC3)nn2)cc1 | i
O=C(/C=C/c1ccccc1)N1CCN(C(=O)C2CC2c2ccc(F)cc2)CC1 (stereo not given) | i
COc1ccc(Nc2c(C(=O)N3CCC(C)CC3)cnc3nc(C)ccc23)cc1 | i
Cn1c(=O)[nH]c(=O)c2c1nc(N1CCOCC1)n2CCCn1c(N2CCOCC2)nc2c1c(=O)[nH]c(=O)n2C | i
COc1ccc2cc(CCNC(=O)c3ccc(S(=O)(=O)N4CCCCC4)cc3)c(=O)[nH]c2c1 | i
Cc1cn2c3c(=O)n(Cc4ccccc4F)c(=O)n(C)c3nc2n1CCCN1CCOCC1 | i
COc1cccc2sc(OC3CN(C(=O)c4cc5cccc(OC)c5o4)C3)nc12 | i
Cc1ccc(S(=O)(=O)NCCCC(=O)O)c(C)c1N(C)S(=O)(=O)c1ccccc1 | i
COc1ccc(Cl)cc1C(=O)Nc1ccc(C)c(N2CCCC2=O)c1 | i
COc1ccc(SCC2CCN(C(=O)COc3ccc(Cl)cc3)CC2)cc1 | i
CN(C)S(=O)(=O)NCc1nn(C)c(=O)c2ccccc12 | i
C=CCn1c(SCC(=O)N2CCCCCC2)nc2scc(-c3ccc(C)o3)c2c1=O | i
CCc1nn2ncccc2c1-c1ccnc(NC2CC2)n1 | i
COc1cc(OC)cc(-c2nc(-c3cn(-c4ccc(F)cc4)nn3)no2)c1 | i
CCOC(=O)NCC1(OC)CCSC1 (stereo not given) | i
COc1ccc(OCC(=O)NCCCS(=O)(=O)N2CCN(c3ccccn3)CC2)cc1 | i

Next part
SMILES | GIRK2 act
CCC(C(=O)NCC#CCN(C)Cc1ccccc1)c1ccccc1 (stereo not given) | i
COC(=O)Cn1c(=O)c2c(nc(-n3nc(C)c(C)c3C)n2C(C)C)n(C)c1=O | i
O=C(CSc1nc2ccccc2c(=O)n1Cc1ccc2c(c1)OCO2)Nc1ncn[nH]1 | i
Cc1nc2cc(NC(=O)c3cc4n(n3)CCCO4)ccc2s1 | i
Cc1cc(C)nc(NC(=O)c2cc3n(n2)CCCO3)n1 | i
O=C(NCC(Cc1cccc(F)c1)N1CCCC1=O)c1ccc(=O)[nH]n1 (stereo not given) | i
COc1cccc(CSc2nc(CC(=O)N3CCc4ccccc4C3)cc(=O)[nH]2)c1 | i
CCCCOc1ccc(C(=O)N(Cc2ccco2)c2nc3ccc(S(C)(=O)=O)cc3s2)cc1 | i
OCCNCCCOc1cccc(Cl)c1Cl | i
COc1cccc(/C=C2\Oc3cc(OCC(=O)OC(C)(C)C)ccc3C2=O)c1 | i
COc1cc2nc(SCC(=O)Nc3ccccc3C)n3nc(-c4ccccc4)nc3c2cc1OC | i
O=C(/C=C/c1ccco1)Nc1ccc2c(c1)CN(C(=O)C1CC1)CC2 | i

In the list so far, these have a tert-butyl group:
SMILES | GIRK2 act
CC(C)(C)C(=O)NCC#CCOc1ccc2c(c1)OCO2 | i
COc1cccc(/C=C2\Oc3cc(OCC(=O)OC(C)(C)C)ccc3C2=O)c1 | i

Five compounds already listed, ordered by number of heavy atoms, lowest first.
SMILES | GIRK2 act
Cc1cc(C)nc(NC(=O)c2cc3n(n2)CCCO3)n1 | i
CCC(C(=O)NCC#CCN(C)Cc1ccccc1)c1ccccc1 (stereo not given) | i
O=C(NCC(Cc1cccc(F)c1)N1CCCC1=O)c1ccc(=O)[nH]n1 (stereo not given) | i
O=C(CSc1nc2ccccc2c(=O)n1Cc1ccc2c(c1)OCO2)Nc1ncn[nH]1 | i
CCCCOc1ccc(C(=O)N(Cc2ccco2)c2nc3ccc(S(C)(=O)=O)cc3s2)cc1 | i

The list goes on:
SMILES | GIRK2 act
CCc1ccc(NC(=O)CN2N=NC3C(=O)N(c4ccc(Br)cc4)C(=O)C32)cc1 (stereo not given) | i
O=c1c2ccccc2n(Cc2nc(-c3ccc4c(c3)OCO4)no2)c(=O)n1CCc1ccccc1 | i
COc1ccc(NC(=O)COc2ccc3c(c2)O/C(=C\c2cccc(OC)c2OC)C3=O)cc1 | i
Cc1ccc(NC(=O)C(=O)NCC2(CO)CC2)cc1N1CCCC1=O | i
CC(CCc1ccccc1)NC(=O)CN(C)c1nc2ccccc2s1 (stereo not given) | i
COC(=O)CN(C)C(=O)c1cnn2c1OCCC2 | i
COC(=O)Cn1cccc(-c2nc(-c3ccccc3Cl)no2)c1=O | i
Cn1c(SCCO)nc2c1c(=O)n(Cc1ccc(Cl)cc1)c(=O)n2C | i
COc1ccc(C(=O)NCCN2CCN(c3ccccc3)CC2)c(OC)c1OC | i
O=C(NCc1ccccn1)c1ccc(S(=O)(=O)N2CCOCC2)o1 | i
O=C(Cn1nc2c(SCc3ccc(Cl)cc3)nccn2c1=O)Nc1ccccc1F | i
CCC(C(=O)N(CCc1cccs1)Cc1ccoc1)c1ccccc1 (stereo not given) | i
O=C(CN1CCN(S(=O)(=O)N2CCCCC2)CC1)Nc1cc(Cl)cc(Cl)c1 | i
COc1cc2nc(SCC(=O)Nc3c(C)cc(C)cc3C)n3nc(C)nc3c2cc1OC | i
O=C(CSc1cc(-c2ccccc2)ncn1)NCc1cccs1 | i
CC(=O)Nc1cccc(C#Cc2cncnc2Nc2ccc(OCc3cccc(F)c3)c(Cl)c2)c1 | i
COc1ccc(NC(=O)N2CC(c3nc4ccc(C)cc4[nH]3)C2)cc1 | i
CCOC(=O)N1CCN(CC(O)COc2ccc(C)cc2)CC1 (stereo not given) | i
CC(C(=O)Nc1nc2ccccc2[nH]1)n1nc(-c2ccco2)ccc1=O (stereo not given) | i
CCc1ccccc1NC(=O)CSc1cc(-n2nc(C)cc2C)ncn1 | i
O=C(Cc1cccs1)NCCn1ncc2c(N3CCCCCC3)ncnc21 | i
CC(=O)c1cccc(NC(=O)C(C)n2nc(-n3nc(C)cc3C)ccc2=O)c1 (stereo not given) | i
CCOc1ccccc1-n1nnc(C(=O)Nc2ccccc2)c1C(C)C | i
Cc1ccc(C(=O)Nc2ccc(Cn3cnc(C(=O)NCc4ccc(F)cc4)c3)cc2)cc1 | i
COc1ccc(C)cc1NC(=O)N1CCN(c2cc(C)ncn2)CC1 | i
O=C(c1ccco1)N1CCc2ccc(NC(=O)C3(c4ccc(F)cc4)CC3)cc2C1 | i
O=C(C[C@@H]1C(C(=O)OCCc2ccc(O)c(O)c2)=CO[C@@H](O[C@@H]2O[C@H](CO)[C@@H](O)[C@H](O)[C@H]2O)/C1=C\CO)OCCc1ccc(O)c(O)c1 | i
CCC(C)Nc1nc2c(c(=O)n(C)c(=O)n2C)n1CC (stereo not given) | i
O=C1CC(c2noc(-c3ccccc3)n2)CN1C1CCc2ccccc21 (stereo not given) | i
COc1ccc(OCCNC(=O)N2CCCCC2)cc1 | i
CCOc1ccc(C2NC(=S)NC(C)=C2C(=O)Nc2cccc(Cl)c2)cc1 (stereo not given) | i
CC1=C(/C=C/C(C)=C/C=C/C(C)=C\C(=O)O)C(C)(C)CCC1 | i
COc1ccc(NC(=O)NC2(c3nc(C)no3)CCCCC2)c(C)c1 | i
N#CC(c1nc2ccccc2nc1N1CCCC1)S(=O)(=O)c1ccc(Cl)cc1 (stereo not given) | i
Cn1ccnc1SCC1CCN(S(=O)(=O)c2ccc(Br)cc2)CC1 | i
COCCNC(=O)C(=O)NCC1(c2ccc(F)cc2)CC1 | i
Cc1ccc(NC(=O)c2cn(C)nc2C)cc1C | i
CCOc1ccccc1NC(=O)c1cc2ccccc2c(=O)s1 | i
CNC(=O)Cc1csc(NC(=O)Cc2c(C)nc(SCc3ccccc3)[nH]c2=O)n1 | i
CCOc1c(C)cc(S(=O)(=O)NCC2(c3ccccc3OC)CCOCC2)cc1C | i
CONC(=O)c1csc(Nc2cccnc2)n1 | i
COC(=O)c1ccc(CN2CN(c3ccc(C)cc3)c3ncccc3S2(=O)=O)o1 | i
CCCCCCCCCCCCCCCC(=O)N[C@H]1CCOC1=O | i
CCN1C(=O)C(C)(C)COc2cc(NC(=O)c3cnn(-c4ccccc4)c3C)ccc21 | i

Assay outcomes (PubChem)
